From PubChem
Tgondii IFNg – blocks Toxoplasma gondii growth in the presence of IFN-gamma; actives 3.8% (n = 69,000); activity change, negative = inhibition, %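 (about 20 µM by stock and volumes)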; Toxoplasma gondii growth in IFN-gamma-treated host cells; active compounds read low; reference of the scale not given here;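 active = below -70%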;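 note: host cells are HeLa cells infected with Toxoplasma gondii; parasite growth read as luciferase light; one replicate is shown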
The depositor's hits bear a star; i = inactive; & = joins results of further samples. This is a subset (hit frequency here may not be typical).

Preview:
SMILES	Tgondii IFNg
CN(C)C1CCN(C(=O)C2=NOC3(CCN(Cc4cccc(C#N)c4)C3)C2)CC1 (stereo not drawn)	27
Cc1cn(C)c2ccc(C(=O)N3CCN(S(=O)(=O)N4CCOCC4)CC3)cc12	-9

Main list, previewed entries included:
SMILES	Tgondii IFNg
CN(C)C1CCN(C(=O)C2=NOC3(CCN(Cc4cccc(C#N)c4)C3)C2)CC1 (stereo not drawn)	27
Cc1cn(C)c2ccc(C(=O)N3CCN(S(=O)(=O)N4CCOCC4)CC3)cc12	-9
Cc1cccc(S(=O)(=O)N2C[C@@H]3COC[C@@]3(CN(C)C)C2)c1	-1
O=C(Nc1cc(Cl)cc(Cl)c1O)c1c(O)c(Cl)cc(Cl)c1Cl	-11
O=C(Nc1c(Cl)cncc1Cl)c1ccc(OC(F)F)c(OCC2CC2)c1	16
CN1CCN(C(=O)C[C@@H]2CC[C@@H]3[C@H](COC[C@@H](O)CN3C(=O)c3ccccc3F)O2)CC1	7
O=c1ccc2cc(S(=O)(=O)Nc3ccccc3)ccc2[nH]1	i
COc1cccc(C(=O)N2C[C@H]3Cc4cn(CCNC(C)=O)nc4[C@H]3C2)c1	-19
COc1ccc2c3c(n(C)c2c1)[C@H](CO)N(S(=O)(=O)c1ccc(C)cc1)CC31CN(C(=O)c2ccccn2)C1	-35
Cc1cccnc1-c1n[nH]c(Cc2ccccc2)n1	-48
CS(=O)(=O)N[C@H]1CN(c2ncc(F)cn2)C2CCCOC21 (stereo partly drawn)	-24
CC(C)C[C@H](NC(=O)[C@@H]1Cc2ccccc2CN1C(=O)OC(C)(C)C)C(=O)NCC1CCC(C(=O)O)CC1 (stereo partly drawn)	15
COCCn1nnnc1CN1CCSCC1	8
CC(=O)N1[C@H](CO)[C@@H](c2ccccc2)[C@@H]1CN(CC(C)C)C(=O)c1ccccn1	-9
O=C(Nc1cccc(Cl)c1)c1nc(Nc2ccc(Cl)cc2)c2ccccc2n1	23
Cn1nc(CN2CCCCC2)c2c1CN(C(=O)c1ccc(C#N)cc1)C2	-2
CO[C@H]1CC[C@H]2CCOc3ccc(C#N)cc3C(=O)N(C)CC3(CCCCC3)CC(=O)N(C)C[C@H]1O2	-23
COCCN1CCCc2sc(C(=O)NCC3CCCO3)nc21 (stereo not drawn)	6
CN(C)CCOCC12CCCOC1CCN(C(=O)N(C)C)C2 (stereo not drawn)	2
COc1ccc(CC(=O)N2CCC3(CC2)NC(=O)c2ccccc2N3C)cc1OC	-9
CN(C)c1nc(OCCNC(=O)Nc2ccccc2)nc(N2CCCCC2)n1	-55
Clc1ccc2c(Nc3ccccc3)ccnc2c1	-68
CN1C(=O)c2cc(NC(=O)c3ccc(F)c(F)c3)ccc2OC[C@H]2O[C@@H](CC(=O)N3CCCCC3)CC[C@@H]21	-28
Clc1ccc(-c2nc(N3CCN(c4ccccn4)CC3)c3ccccc3n2)cc1	3
Cc1cc(C(=O)N2CC[C@@H]3Oc4ccccc4S(=O)(=O)N(CCC(C)C)[C@@H]3CC2)n[nH]1	-29
CO[C@H](C(=O)N(C)C[C@@H]1OCc2ccccc2-c2ccccc2C(=O)N([C@H](C)CO)C[C@H]1C)c1ccccc1	-4
O=c1cc(CN2CCCC2)nc2n1CCCN(Cc1ccc(F)cc1)C2	-12
Cc1nn(-c2ccccc2)c(-c2ccccc2)c1C(=O)O	26
COc1ccc(CN2C[C@@H]3C[C@H](C(=O)Nc4ccccc4)[C@@H](C2)O3)cc1	-29
CNC(=O)[C@@H]1C[C@@H](N)CN1C(=O)[C@@H](OC)c1ccccc1	-6
CCc1cc(C(C)NC(=O)c2ccc(-n3cnnc3)cc2)on1 (stereo not drawn)	3
CCS(=O)(=O)N1CCC2(CC1)CC(COCC1CC1)N(C)C2 (stereo not drawn)	2
O=C(O)c1cnc(-c2cccc3c2CCNC3)c(Cl)c1	2
CCOC(=O)c1c(NC2CCCCC2)c2ccc(Cl)cc2[nH]c1=O	-33
C/C=C/c1ccc([C@@H]2[C@@H](CO)N(CCC(F)(F)F)C23CN(C(=O)CC2CC2)C3)cc1	108
O=C(N1CCCC1)N1CCC2(CC(=O)N(c3ccccc3)C2)C1 (stereo not drawn)	8
Cc1ccc2[nH]c(=O)c(CN3CCN(CC(=O)N4CCCC4)CC3)cc2c1	6
COc1ccc(-c2nc(Nc3ccccc3Cl)c3ccccc3n2)cc1	3
Cc1ccc(-c2cc3c(=O)n(Cc4nc(-c5ccccc5C)oc4C)ccn3n2)cc1C	21
CCc1c(C)nc2cc(C3C=CCN3C(=O)C(C)(C)C)[nH]n2c1=O (stereo not drawn)	4

Five neighbouring entries out of the list so far:
SMILES	Tgondii IFNg
CCc1cc(C(C)NC(=O)c2ccc(-n3cnnc3)cc2)on1 (stereo not drawn)	3
CCS(=O)(=O)N1CCC2(CC1)CC(COCC1CC1)N(C)C2 (stereo not drawn)	2
O=C(O)c1cnc(-c2cccc3c2CCNC3)c(Cl)c1	2
CCOC(=O)c1c(NC2CCCCC2)c2ccc(Cl)cc2[nH]c1=O	-33
C/C=C/c1ccc([C@@H]2[C@@H](CO)N(CCC(F)(F)F)C23CN(C(=O)CC2CC2)C3)cc1	108

Other compounds follow:
SMILES	Tgondii IFNg
O=c1[nH]c2ccc(Cl)cc2c(-c2ccccc2)c1C1=NNC(c2ccco2)C1 (stereo not drawn)	402
COc1ccc2c3c(n(C)c2c1)[C@@H](CO)N(C)CC31CCN(S(=O)(=O)c2cccc(F)c2)CC1	-47
O=C(Cc1cccnc1)N1CC(=O)N2[C@H](C1)[C@@H](c1ccc(C#CC3CCCCC3)cc1)[C@@H]2CO	-37
COc1cccc(OC)c1-c1n[nH]c2ccc(C)cc12	-18
Nc1nnc(Cc2nc3ccccc3s2)s1	111
COc1cccc(-c2cc(C(=O)O)cc(S(=O)(=O)N3CCOCC3)c2)c1F	4
CC(C)(CNC(=O)CC1NC(=O)N(c2ccccc2)C1=O)c1cccc(F)c1 (stereo not drawn)	-3
Cc1nn(Cc2nc(-c3ccc(NC(=O)c4cc(F)cc(F)c4)cc3)oc2C)c(C)c1C	15
N#Cc1ccc(-c2cccc(-c3nc(C(=O)O)cc4c3[C@H](CCO)N(CC3CCOCC3)C4)c2)cc1	-47
C[C@H]1CN([C@@H](C)CO)C(=O)c2ccccc2-c2ccccc2CO[C@H]1CN(C)C(=O)[C@@H](Cc1ccccc1)N(C)C	-45
O=C(NCc1cncc2c1CCN(Cc1ccc(F)cc1)C2)C1CC1	1
Cc1cc(C)c2c(=O)c(-c3cc(C(=O)O)c4cc5ccccc5cc4n3)coc2c1	-6
CCN1CCC2(CC1)OC(=O)C(C)=C2C(=O)NC1CCN(Cc2ccccc2)CC1	30
O=C(C[C@H]1CC[C@@H](NC(=O)Nc2ccc(C(F)(F)F)cc2)[C@H](CO)O1)NCc1cccc(F)c1	-65
Cc1ccc2[nH]c(=O)c(-c3nc(-c4cccc(F)c4)no3)c(O)c2c1	23
O=C1CCCN1Cc1nnc2n1CCCN(c1ncccn1)C2	-21
C[C@@H](NC(=O)C[C@H]1CC[C@H]2[C@@H](COc3ccc(NC(=O)C4CCOCC4)cc3C(=O)N2C)O1)c1ccccc1	8
COc1ccc(-c2cc(C(F)(F)F)nn2-c2nc(-c3ccc(C)cc3)cs2)cc1	28
CCCN1C[C@H](C)[C@H](OC)CN(C)C(=O)c2cc(NC(=O)C3CCC3)ccc2OC[C@H]1C	107
C=CC(=O)N1CCO[C@H]2[C@H]1CC[C@H]2OCc1csc(C)n1	5
COc1cccc(NC(=O)Cn2c(=O)ccc3cc(S(=O)(=O)N4CCCC4)ccc32)c1	-46
O=C(O)CN1CCC(F)(F)C2(CCN(c3ccccc3)C2)C1 (stereo not drawn)	-10
COc1cc2c(cc1-c1nccn1-c1ccc3nc(CO)[nH]c3c1)CCC2	-29
O=C1NC2(Nc3ccccc31)C(=O)Nc1ccc(Br)cc12 (stereo not drawn)	28
COc1ccc2cc(CN3[C@@H]4CC[C@H]3CN(C)C(=O)C4)c(=O)[nH]c2c1	72
CNC(=O)[C@H]1C[C@@H]2CN(Cc3nccs3)C[C@@H]2N1C(C)=O	0
CCOc1ccccc1NC(=O)CN1CCC2(CC1)N=C(c1cccc(Cl)c1)C(=O)N2	-21
c1ccc(CCn2ccnc2-c2cc3ccccc3o2)nc1	27
COc1ccc(C)cc1S(=O)(=O)NCCc1csc(-c2ccc(F)cc2)n1	-7
Cc1noc(C)c1CN1CCN(CCN(C)C)c2ncccc2C1	-1
CCOc1ccc2nc(SCC(=O)c3ccc(F)cc3)sc2c1	-79*
COc1ccc(NC2C3CCCC2CNC3)c(OC)c1 (stereo not drawn)	i
Cn1ccnc1CN1CCC2(CC1)CN(S(C)(=O)=O)c1ccccc12	0
COC(=O)C[C@H]1CC[C@@H](N)[C@@H](CO)O1	14
C[C@@H]1CN([C@@H](C)CO)C(=O)c2cc(NC(=O)Nc3ccc4c(c3)OCO4)ccc2O[C@@H](C)CCCCO[C@H]1CN(C)S(=O)(=O)c1ccccc1	106
COc1ccc(F)c(-c2ccccc2OC(C)C(N)=O)c1 (stereo not drawn)	1
COc1ccc(S(=O)(=O)Nc2ccc3c(c2)C(=O)N([C@@H](C)CO)C[C@@H](C)[C@@H](CN(C)Cc2ccc(C(F)(F)F)cc2)OCCCC[C@@H](C)O3)cc1	-109*
Nc1ncnc(Nc2ccc(Cl)cc2)n1	32&33
CNC(=O)c1ccc(-c2nc(CN3CCN(c4ccccc4)CC3)c(C)o2)cc1	23
CO[C@H](CN(C)C(=O)C1CCOCC1)[C@H](C)CN([C@H](C)CO)S(=O)(=O)c1ccccc1	-49
Cc1ccn(-c2cc(Cl)ccc2[C@@H](Oc2cc(-c3ccc(C[C@H](N)C(=O)O)cc3)nc(N)n2)C(F)(F)F)n1	14
COc1ccc(NC(=O)c2nc(Nc3ccccc3)c3ccccc3n2)cc1	118
FC(F)(F)c1ccc(-c2noc(CN3CCCN(C4CCCCC4)CC3)n2)cc1	-8
O=C(c1ccc[nH]1)N1CCCC2(COCCN(c3cccc(F)c3)C2)C1 (stereo not drawn)	5
O=C1CCCC(=O)C1C(=O)c1ccc(C(F)(F)F)cc1[N+](=O)[O-]	16
CCOc1ccccc1-c1nc(Cn2nnc(C(=O)Nc3c(C)cccc3C)c2C)c(C)o1	297
O=C(c1cccc(F)c1)N1CCC2(CC1)CC(Oc1cccnc1)C2	-44
COc1ccc(C(=O)N2C[C@H]3[C@@H](c4ccccc42)[C@H](CO)N3Cc2ccccc2Cl)cc1	44
O=C(C[C@@H]1C=C[C@@H](NC(=O)c2ccncc2)[C@H](CO)O1)NCC1CC1	-55
O=C(CC1NC(=O)c2ccccc21)NCc1nc(C2CCCCC2)no1 (stereo not drawn)	7

Quoted from the listing.
Under Tgondii IFNg, FC(F)(F)c1ccc(-c2noc(CN3CCCN(C4CCCCC4)CC3)n2)cc1 is entered as -8
Under Tgondii IFNg, O=C(C[C@@H]1C=C[C@@H](NC(=O)c2ccncc2)[C@H](CO)O1)NCC1CC1 is entered as -55
Under Tgondii IFNg, O=C(CC1NC(=O)c2ccccc21)NCc1nc(C2CCCCC2)no1 (stereo not drawn) is entered as 7
Under Tgondii IFNg, O=C(c1cccc(F)c1)N1CCC2(CC1)CC(Oc1cccnc1)C2 is entered as -44

(continued)
SMILES	Tgondii IFNg
Cc1ccc(C(=O)N2C[C@@H](C(=O)Nc3cccnc3)C[C@@H]3OCC[C@@H]32)o1	160
CCOc1ccc(C(=O)N2CCC3(CC2)Nc2ccc(Cl)cc2-n2cccc23)cc1	-53
COCC1CN(Cc2cnn(C)c2)Cc2nnn(CC3CC3)c21 (stereo not drawn)	-37
CCCCc1ncc(CN(C)Cc2cccc3ncccc23)[nH]1	-3
Cc1cc(Cc2ccc(C(F)(F)F)cc2)c(=O)[nH]n1	-9
CN(Cc1ccc2cccc(O)c2n1)Cc1nnc(-c2ccccc2)o1	-7
COCCN1C(=O)CCC12CCCN(CC1CCOC1)CC2 (stereo not drawn)	-47
CCOC(=O)N1CCC2(CC1)NC(=O)c1ccccc12	-1
NC(=O)CN1CC=C(CN2CCN(C(=O)c3cccs3)CC2)CC1	-44
CC(C)C1N=C2c3ccccc3N=C(SCc3ccc(Cl)cc3)N2C1=O (stereo not drawn)	-3
N#CCOc1ccc(Br)cc1	-9
O=c1c2ccccc2n2nnnc2n1-c1ccccc1	-50
Oc1ccc(Cl)c2cccnc12	12&18
CC(C)Cc1ccc(S(=O)(=O)N2CCC3(CC2)Nc2ccccc2-n2cccc23)cc1	3
O=C(CC1COCCN1)N(CCc1c[nH]c2ccccc12)C1CCCCC1 (stereo not drawn)	-60
C/C=C/c1cnc2c(c1)C(=O)N([C@@H](C)CO)C[C@@H](C)[C@H](CN(C)CC1CCOCC1)O2	-65
CCc1nc(CNC(=O)c2ccc(OCC(=O)N3CCCCC3)cc2)no1	5
CNC(=O)c1cc(-c2cnc3ccccc3c2)ccc1Cl	78
O=C(Cc1ccc(Cl)cc1)NCCc1csc(-c2ccc(C(F)(F)F)cc2)n1	426
Cc1ccc(F)cc1-n1c(Cc2ccc(O)cc2)n[nH]c1=O	7
O=C(c1cnccn1)N1CCC(c2nc3ccc(-c4cccc(F)c4)cn3n2)CC1	-72*
CC(C)c1ccc(S(=O)(=O)N2CCC3(CC2)NCCN=C3NC2CCCC2)cc1	0
CCO[C@H]1CO[C@@]2(CCCN(C(=O)C3CC=CC3)C2)C1	-3
CCc1ccc(Cn2cnc(-c3ccccc3)c2-c2cnc(OC)nc2)nc1	1
CN1C(=O)c2cc(NC(=O)Cc3cccs3)ccc2OC[C@H]2O[C@@H](CC(=O)N[C@H]3CCN(Cc4ccccc4)C3)CC[C@@H]21	1
CCn1c(=O)c(-c2nc(-c3ccc(OC)cc3OC)no2)c(O)c2ccccc21	-3
COc1ccc(S(=O)(=O)N2CCn3cnc(COc4cccnc4)c3C2)cc1	3
CC(C)CNC(=O)C1Cn2ccnc2C2(CCN(S(C)(=O)=O)CC2)O1 (stereo not drawn)	-4
O=C(NCCN1CCOCC1)c1nc(Nc2ccc(F)cc2)c2ccccc2n1	31
CCN(CC)c1ncnc2c1cnn2CC(=O)NCc1ccc(C)cc1	-86*
CCOc1ccc(-c2nc(CN3CCN(C(=O)Nc4ccccc4Cl)CC3)c(C)o2)cc1	4
